Sa RN4220 lethal – S. aureus RN4220 growth inhibition | OD600, 16 h | inhibition, % (test concentration not listed) | 330,000 tested, 0.33% active | AID 1259311;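 active = z-score of -3 or lower and OD600 up to 0.18 on both plates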;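 note: plate controls were untreated cells for no effect and reference antibiotic for full effect; stock transfer was 100 nL into about 80 µL; one replicate is shown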
PrP 5UTR inh – inhibition of PrP 5' UTR reporter expression; inhibition, % (concentration not given with the values); 340,000 tested, 0.35% active; cell-based PrP 5' UTR mRNA reporter, plate reader; AID 488862;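 active = every replicate at 50% or more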;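 note: 0 = median of the neutral control wells; tested in H4 reporter cells; numbers are from one replicate; inactives centre near -14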
Mtb hypoxia rep – inhibitors of hypoxia-regulated fluorescent reporter in Mycobacterium tuberculosis; M. tuberculosis hypoxia-regulated fluorescent reporter, fluorescence; fluorescence inhibition, % (test concentration not listed); 300,000 tested, 0.1% active; AID 1159583;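 active = 35 to 45% if threefold the growth effect, above 45% if 1.5-fold the growth effect; inactive = the rest, general growth blockers included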;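 note: wells of about 50 µL received 100 nL stock; 0% = vehicle wells and 100% = reference inhibitor wells; whole bacteria with a GFP reporter of the hypoxia response; strong numbers were not always called active; many hits fall short of the cut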
BJeLR viability – kills HRASV12-expressing BJeLR cells | 300,000 tested, 0.17% active | BJeLR (HRASV12) viability, CellTiter-Glo ATP luminescence, 48 h; reference of the scale not given here | inhibition, % (test concentration not listed);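 active = replicate mean above 50%; inconclusive = above 50% but judged a plate artefact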;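 note: 50 nL library stock added to about 25 µL; numbers are from one replicate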
Bead autofluor – compound fluorescence in toxin protease inhibitor counterscreen; compound autofluorescence counterscreen, microsphere flow cytometry; hits give high values; fluorescence intensity (test concentration not listed); 360,000 tested, 3.1% active;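 active = at least 3 SD above the mean of all compounds, about 16000 in these data; inconclusive = too few beads counted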;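 note: 100 nL of 1 mM stock went into each well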
Sa ugtP lethal – kills S. aureus RN4220 lacking UgtP; S. aureus RN4220 ugtP deletion, OD600 growth, 16 h; some inactives read as strong as hits; growth inhibition, % (no concentration beside the values); 330,000 tested, 0.54% active;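 active = z-score under -3 and OD600 up to 0.15 on both plates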;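 note: plate controls were untreated wells for no effect and antibiotic for full effect; wells of about 80 µL received 100 nL stock; the first replicate is given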
Mtb hypoxia rep growth – further read-out of Mtb hypoxia rep, marked with its call; growth inhibition, %; measured here: M. tuberculosis growth (absorbance);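 0% = vehicle and 100% = reference antibiotic; read after six days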
An asterisk follows results filed as active; ? = inconclusive; / = not tested or not shown.

SMILES	Sa RN4220 lethal	PrP 5UTR inh	Mtb hypoxia rep	Mtb hypoxia rep growth	BJeLR viability	Bead autofluor	Sa ugtP lethal
Cc1ccc(C)c(CN2CCC(CNC(=O)Nc3ccc(C)c(C)c3)CC2)c1	/	-13	/	/	-2	3410	/
CCC(C)(NC=O)C(=O)Nc1c(C)cccc1C (stereo unspecified)	0.0	-11	2	-1	0	3294	-3
[N-]=[N+]=NC[C@H](c1ccccc1)N1CCN(Cc2ccccc2)CCC1=O	/	-18	/	/	-4	4461	/
C=CCc1cccc2cc(C(=O)NC3=C(C#N)CCC3)c(=O)oc12	7.0	-12	3	4	-13	/	-7
Cc1cccc(NS(=O)(=O)c2cccc(C(=O)NCC(C)(C)N3CCOCC3)c2)c1	-0.8	-1	3	-5	1	3936	-3
O=c1c2ccccc2c(C=NCCCN2CCOCC2)c(O)n1Cc1ccccc1	1.0	-9	/	/	9	4524	-1
Cc1ccc(C2C(C#N)C(C#N)N3CCCN23)cc1 (stereo unspecified)	0.8	-34	/	/	-2	2392	-5
O=C(CCN1C(=O)C2CCCCC2C1=O)Nc1ccc(F)c(F)c1F (stereo unspecified)	5.8	1	-1	2	3	4522	3
CSCc1ccc(C(=O)OCc2nc3ccccc3s2)o1	0.6	-57	1	8	/	4007	-1
CCCCNC(=O)c1cccnc1SCC(=O)Nc1ccccc1OC	-0.6	-24	1	0	3	8511	3
N#C/C(=C\c1cccc(OC(=O)c2cccs2)c1)C(N)=O	3.9	-23	12	3	9	2123	7
COc1cc2oc(=O)c(Br)c(C)c2c(OC)c1OC	4.0	-13	/	/	/	2246	-1
Cn1c(SCC(=O)Nc2ccc(N3CCOCC3)cc2)nnc1C1CC1	-1.5	-9	-12	2	/	9414	-2
COc1ccc(OC)c(CNc2ccc3c(c2)nc(C)n3C)c1	6.4	-23	5	2	6	4316	16
CCOc1ccc(NS(=O)(=O)c2ccc(C(=O)N3CCC3)cc2)cc1	2.6	-9	6	10	12	6025	3
COc1nc(OC)nc(N2CCCCCC2)n1	1.2	5	-1	4	-13	7835	14
CN1C(=O)C(CC(=O)Nc2ccc(F)cc2)N(CCCc2ccccc2)C1=S (stereo unspecified)	1.2	-18	13	8	16	2819	8
O=C(NC1CCCCC1)NC1(C(=O)NCCCN2CCOCC2)CCCCC1	-5.6	-4	4	14	-9	4958	-6
CN(CC(=O)Nc1ccccc1C(F)(F)F)C(=O)CSc1nnc(-c2ccncc2)n1C	6.1	-12	2	12	/	3425	4
CC(=O)c1cccc(S(=O)(=O)N2CCN(CCOc3ccccc3)CC2)c1	3.0	-16	1	0	/	8733	4
COc1ccc(C(=O)N[C@H](C(=O)NCc2ccco2)C(C)C)cc1	3.5	-28	9	6	2	3990	2
CC(C)C(NS(=O)(=O)c1cccs1)C(=O)NCc1ccccc1Cl (stereo unspecified)	2.4	0	-7	-11	5	1993	-1
Oc1ccc(C2Nc3cccc4cccc(c34)N2)cc1	41	-17	7	-4	0	/	97*
COc1ccccc1N1CC(O)=C(c2nc3ccccc3s2)C1=N	5.0	4	8	14	-11	5474	8
Cc1ccc(S(=O)(=O)N2CCNC(=O)C2)c(C)c1	6.2	4	7	3	/	4656	2
Cc1cc(NC2CCCCC2)n2c(n1)nc1ccccc12	1.4	-6	-10	9	4	3090	-4
N#Cc1c(N)n(CCCN2CCOCC2)c2nc3ccccc3nc12	3.5	-47	/	/	/	3204	11
Cc1cc(C)nc(SCc2ccc3nonc3c2)n1	-5.5	-15	-1	9	-5	9038	3
CC(Nc1ccnc2cc(Cl)ccc12)c1ccc(S(N)(=O)=O)cc1 (stereo unspecified)	3.7	-6	5	6	5	5505	4
Cc1ccc(NC(=O)CCC(=O)NNC(=O)COc2ccccc2)cc1C	/	-21	/	/	-19	2425	/

Some of the entries so far, with bars between the fields:
SMILES | Sa RN4220 lethal | PrP 5UTR inh | Mtb hypoxia rep | Mtb hypoxia rep growth | BJeLR viability | Bead autofluor | Sa ugtP lethal
CN(CC(=O)Nc1ccccc1C(F)(F)F)C(=O)CSc1nnc(-c2ccncc2)n1C | 6.1 | -12 | 2 | 12 | / | 3425 | 4
CC(=O)c1cccc(S(=O)(=O)N2CCN(CCOc3ccccc3)CC2)c1 | 3.0 | -16 | 1 | 0 | / | 8733 | 4
COc1ccc(C(=O)N[C@H](C(=O)NCc2ccco2)C(C)C)cc1 | 3.5 | -28 | 9 | 6 | 2 | 3990 | 2
CC(C)C(NS(=O)(=O)c1cccs1)C(=O)NCc1ccccc1Cl (stereo unspecified) | 2.4 | 0 | -7 | -11 | 5 | 1993 | -1
Oc1ccc(C2Nc3cccc4cccc(c34)N2)cc1 | 41 | -17 | 7 | -4 | 0 | / | 97*
COc1ccccc1N1CC(O)=C(c2nc3ccccc3s2)C1=N | 5.0 | 4 | 8 | 14 | -11 | 5474 | 8
Cc1ccc(S(=O)(=O)N2CCNC(=O)C2)c(C)c1 | 6.2 | 4 | 7 | 3 | / | 4656 | 2
Cc1cc(NC2CCCCC2)n2c(n1)nc1ccccc12 | 1.4 | -6 | -10 | 9 | 4 | 3090 | -4
N#Cc1c(N)n(CCCN2CCOCC2)c2nc3ccccc3nc12 | 3.5 | -47 | / | / | / | 3204 | 11
Cc1cc(C)nc(SCc2ccc3nonc3c2)n1 | -5.5 | -15 | -1 | 9 | -5 | 9038 | 3
CC(Nc1ccnc2cc(Cl)ccc12)c1ccc(S(N)(=O)=O)cc1 (stereo unspecified) | 3.7 | -6 | 5 | 6 | 5 | 5505 | 4
Cc1ccc(NC(=O)CCC(=O)NNC(=O)COc2ccccc2)cc1C | / | -21 | / | / | -19 | 2425 | /

(list continues)
SMILES	Sa RN4220 lethal	PrP 5UTR inh	Mtb hypoxia rep	Mtb hypoxia rep growth	BJeLR viability	Bead autofluor	Sa ugtP lethal
O=[N+]([O-])c1cccc(/C=C/C=N/Nc2nc(N3CCCCC3)nc(N3CCCCC3)n2)c1	/	-22	/	/	-21	3517	/
COc1ccc(CNC(=O)COc2cc(O)c3c(c2)OC(C)(C)CC3=O)c(OC)c1	3.2	4	/	/	0	5493	15
CSCCC(NC(=O)c1ccc(C(C)(C)C)cc1)C(=O)OCC(=O)N1CCCC1=O (stereo unspecified)	1.0	-31	-6	3	/	3839	7
Cc1cc(NC(=O)c2cccc(S(=O)(=O)Nc3cccc(C(=O)O)c3)c2)no1	/	-3	/	/	2	5983	/
Cc1ccc(C)c(N2CCN(C(=O)c3ccc4nc(-c5ccco5)c(-c5ccco5)nc4c3)CC2)c1	0.4	-13	-2	-1	5	7989	5
O=CN1CCN(c2c([N+](=O)[O-])c(=O)oc3ccccc23)CC1	-2.0	-2	0	-4	10	3063	-4
C/C(=N\NC(=O)c1ccccc1O)c1ccc(Br)s1	/	-17	/	/	2	2522	/
CCc1cccc(CC)c1NC(=O)COC(=O)c1ccc(F)c(S(=O)(=O)N(CC)CC)c1	1.9	-17	9	-1	-4	1960	6
CC(=O)c1cccc(NC(=O)NC2CCCCCCC2)c1	2.4	-21	33*	52*	0	5821	-4
Cc1ccc(NC(=O)C(NC2CCCc3ccccc32)c2ccccc2)c([N+](=O)[O-])c1 (stereo unspecified)	4.2	-9	20	10	-11	2216	63
Cc1cc(C)c2c(N)c(C(=O)Nc3ccc(C)c(C)c3)sc2n1	4.7	-66	-5	-6	3	3191	2
Cc1cccc(N(CC(=O)NC2CCCCC2)C(=O)Cn2nnc(-c3ccc(C)o3)n2)c1	3.2	-9	10	5	-10	3362	10
O=C(NNC(=S)Nc1ccccc1Cl)c1ccccc1Cl	1.8	-83	-3	0	2	5799	6
COC(=O)c1ccc(CSc2ccc3nnc(-c4ccc(F)cc4)n3n2)o1	1.5	-12	7	1	/	2650	-3
COc1ccc(C(=O)NC(=S)NCCO)cc1Br	3.6	-24	7	2	1	10563	4
C=CCOC(=O)CCC(=O)Nc1cc(OC)nc(OC)n1	2.4	-10	7	5	14	15968	12
CN(c1ccccc1)S(=O)(=O)c1cccc(C(=O)NCCc2c[nH]c3ccccc23)c1	2.2	-8	12	1	-1	4525	13
Cc1ccccc1-c1n[nH]c(=S)n1N=Cc1ccc(-c2ccccc2Br)o1	7.3	/	13	10	/	/	6
O=c1[nH]c2cc3c(cc2cc1CN(Cc1nnnn1CC1CCCO1)C1CCCC1)OCO3 (stereo unspecified)	0.0	9	/	/	-10	2203	3
CCCC(=O)C1=C(O)C(C(=O)OC)C(C)(C)CC1=N (stereo unspecified)	4.3	-42	/	/	-1	4286	3

Part of the list above in order of SMILES length, low to high:
SMILES	Sa RN4220 lethal	PrP 5UTR inh	Mtb hypoxia rep	Mtb hypoxia rep growth	BJeLR viability	Bead autofluor	Sa ugtP lethal
COc1ccc(C(=O)NC(=S)NCCO)cc1Br	3.6	-24	7	2	1	10563	4
C=CCOC(=O)CCC(=O)Nc1cc(OC)nc(OC)n1	2.4	-10	7	5	14	15968	12
COC(=O)c1ccc(CSc2ccc3nnc(-c4ccc(F)cc4)n3n2)o1	1.5	-12	7	1	/	2650	-3

Following part.
SMILES	Sa RN4220 lethal	PrP 5UTR inh	Mtb hypoxia rep	Mtb hypoxia rep growth	BJeLR viability	Bead autofluor	Sa ugtP lethal
Cc1cc(N/C=C\c2nnnn2-c2ccccc2)no1	5.0	-18	-5	3	6	2100	2
O=C(NN=Cc1ccccc1F)C(=O)N1CCCCCC1	2.3	/	0	5	/	/	7
O=S(=O)(c1ccc2nc(-c3ccco3)c(-c3ccco3)nc2c1)N1CCOCC1	4.6	-2	6	6	1	2991	-2
CN(C(=O)CCNC(=O)Cn1cnc2ccccc2c1=O)c1ccccc1F	5.0	-15	-2	0	0	4029	0
O=C(CNC(=O)C(c1ccccc1)c1ccccc1)N/N=C/c1ccc(O)cc1O	/	-8	/	/	28	4565	/
CCn1c(Cc2ccccc2)nnc1SCC(=O)Nc1nnc(-c2ccccc2)s1	2.9	-5	1	2	-2	8330	2
COc1ccc(-c2[nH]nc3c2C(c2ccc(OC(=O)N4CCOCC4)cc2)C(C#N)=C(N)O3)cc1 (stereo unspecified)	4.5	/	0	-1	/	/	2
O=C(Cc1ccsc1)NNC(=O)c1ccccc1O	4.8	-5	11	-1	13	?	-2
CCC(C)NC(=O)CSC1=Nc2ccccc2C2=NC(CC(=O)NCc3ccccc3)C(=O)N12 (stereo unspecified)	0.8	-29	-2	-5	-10	8652	1
CCCOc1ccc(N2C(=O)CC(NNC(=O)c3ccc(COc4ccccc4)o3)C2=O)cc1 (stereo unspecified)	-0.9	-12	12	7	-10	2997	5
COc1ccccc1-c1cc2nc(C)c(CCC(=O)NCc3ccc(F)cc3)c(C)n2n1	/	0	/	/	-10	3965	/
COc1ccc(/C=C2\SC(=O)N(CC(=O)NCCCn3ccnc3)C2=O)cc1	7.0	-31	3	-2	2	4492	8
O=C(O)CSc1nnc(-c2ccncc2)n1Cc1ccccc1	-12	-24	19	11	10	2971	-6
COc1cccc(CN2CC(C(=O)NCCOc3ccccc3)CCC2=O)c1 (stereo unspecified)	-0.2	-14	3	2	-1	5127	1
CC1(C)CC(=O)C(=CN2CCOCC2)C(=O)C1	-0.2	-23	8	1	-5	2761	3
Cc1ccc(C)c(OCCC(=O)OCC(=O)N2CCN(c3ccccc3)CC2)c1	1.9	-22	4	2	6	3493	-1
Cc1[nH]n2c(=O)c3c(nc2c1-c1ccc(F)cc1)CCCC3	0.8	-21	-13	15	11	3705	2
CC(=O)Nc1cccc(NC(=O)COc2ccc3c(c2)CCC3)c1	0.0	-23	-5	-5	/	2917	-7
CC(=NNC(=O)c1cc(-c2cccc([N+](=O)[O-])c2)n[nH]1)c1cccc(O)c1	-2.9	/	-10	-10	/	/	-4
CC1=CC(C)=Nc2ccccc2N1	2.3	-13	7	6	-2	12325	7
COc1cc(-c2nc3ccc4ccccc4c3c3c2CCC3)ccc1O	99*	-13	5	0	-22	2328	101*
CC(C)(C)n1nc2c(c1NC(=O)c1cc3ccccc3o1)CSC2	3.2	-4	12	-6	-4	4377	-72
COc1ccc(-c2nc(CN3CCCCC3CCc3ccccn3)c(C)o2)cc1 (stereo unspecified)	1.4	-12	14	0	2	3745	4
COc1ccccc1NC(=O)C1CCN(C(=O)c2ccc(C(C)(C)C)cc2)CC1	5.8	1	-5	-10	-2	4235	8
COc1ccc(CN2CCCC(CO)(Cc3ccc(F)cc3)C2)cc1C (stereo unspecified)	-1.3	-12	9	6	4	2993	1
Cn1cnc([N+](=O)[O-])c1SCC(=O)NN	3.9	-8	13	2	1	3401	4
CCOc1ccc(-n2c(=S)sc3c(=O)[nH]c(SCC(=O)C(C)(C)C)nc32)cc1	0.8	4	-8	0	2	3421	-10
O=c1nc(-c2ccccc2)n(-c2ccc(Cl)cc2)[nH]1	4.8	-22	5	7	3	2143	11
